T cruzi repl: inhibitors of intracellular T. cruzi growth, primary screen, luminescence, NIH3T3 host cells | T. cruzi beta-gal in NIH3T3, 90 h | inhibition, % (test concentration not listed) | actives 1.4% (n = 300,000) | AID 1885, 2009;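 active means mean inhibition across valid replicates above about 55%, limit read from the data; inconclusive means mean below that limit but half or more replicates reach it; inactive means mean below it, under half of replicates reach it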;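 further: signal also drops with host cell toxicity which is not excluded here; 0% = plate median of DMSO wells and 100% = zero luminescence signal; higher percent means less beta-gal luminescence so fewer parasites; stock transfer was 50 nL into about 50 µL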
Ecoli rRNA inh: reduced GFP signal of wild-type E. coli, primary screen, bacterial rRNA inhibitor project, GFP/RFP fluorescence, OD600, single point. AID 720706, 2013. E. coli WT GFP vs humanized-ribosome RFP mutants, 24 h; stronger effect = lower value; DMSO median 0, no signal -100. GFP signal change (wild-type ribosome), % (no concentration beside the values). actives 1.6% (n = 350,000);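 active means significant combined selectivity score with lowered wild-type GFP, culture density cut under 30%, mutant RFP and density less affected; inactive means any of these conditions unmet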; further: one replicate is shown; some compounds called inactive have numbers as strong as hits
AF4-AF9 inh: inhibitors of AF4 peptide binding to AF9, primary screen, biochemical, AlphaScreen, biotin-AF4 peptide, FLAG-AF9, single point; AID 651704, 2012; Protein AF-9 (Homo sapiens), P42568; actives 0.47% (n = 350,000); inhibition, % at 10 µM;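 active means every replicate reaching a set inhibition limit, whatever the replicate mean, cut at about 25% in these data; inconclusive means mean inhibition reaches that limit but some replicates miss it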;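 further: 0% = plate neutral control median and 100% = total signal loss; the record names both 10 and 1 µM as test concentration; the first replicate is given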
Target sequence (P42568 whole entry, looked up): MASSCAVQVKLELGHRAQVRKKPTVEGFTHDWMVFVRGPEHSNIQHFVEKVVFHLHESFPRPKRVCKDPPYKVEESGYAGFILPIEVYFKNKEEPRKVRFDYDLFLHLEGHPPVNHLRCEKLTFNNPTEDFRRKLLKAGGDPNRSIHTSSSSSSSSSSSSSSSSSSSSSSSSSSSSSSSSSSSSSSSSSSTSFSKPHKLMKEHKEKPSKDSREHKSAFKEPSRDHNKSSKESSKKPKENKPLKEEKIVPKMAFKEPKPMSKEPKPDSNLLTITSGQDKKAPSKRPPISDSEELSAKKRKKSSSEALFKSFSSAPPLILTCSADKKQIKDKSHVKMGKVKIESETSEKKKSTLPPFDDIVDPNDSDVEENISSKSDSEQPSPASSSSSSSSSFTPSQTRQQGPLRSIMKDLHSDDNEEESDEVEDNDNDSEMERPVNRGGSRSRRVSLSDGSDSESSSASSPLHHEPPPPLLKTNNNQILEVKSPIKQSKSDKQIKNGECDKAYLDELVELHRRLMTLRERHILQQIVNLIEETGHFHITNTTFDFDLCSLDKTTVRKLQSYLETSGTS
FGF22 binding: binders of human FGF22 protein, primary screen, FGF22 synaptogenesis inhibitor project, biophysical, thermal shift, single point. Fibroblast growth factor 22 (Homo sapiens), Q9HCT0. recombinant FGF22 thermal shift, SYPRO orange fluorescence; percent of sucrose octasulfate shift, DMSO zero. calls only at 9.99 µM. actives 1.5% (n = 340,000);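 active means melting point raised past a set limit in the mean and every replicate; inconclusive means no clear call; three in four hits are not shown here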
Target sequence (Q9HCT0 whole entry, looked up): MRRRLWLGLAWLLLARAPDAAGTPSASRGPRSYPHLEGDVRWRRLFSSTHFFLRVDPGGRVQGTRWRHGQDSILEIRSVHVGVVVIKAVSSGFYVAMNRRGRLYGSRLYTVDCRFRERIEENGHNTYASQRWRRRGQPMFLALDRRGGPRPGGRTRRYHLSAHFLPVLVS
Calb FLC: C. albicans growth inhibition with fluconazole, primary screen, CaCi-2 strain, Alamar Blue fluorescence. growth inhibition, % (concentration not given with the values). C. albicans CaCi-2 (fluconazole-resistant clinical isolate) + fluconazole, 48 h. actives 0.57% (n = 300,000). AID 1979, 2009;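 active means most replicates above 75%; inconclusive means exactly half above 75%; inactive means most below 75%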;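 further: all wells also contain fluconazole at 8 µg/ml as a sub-toxic cotreatment; 0% = median of DMSO wells and 100% = median of geldanamycin control wells; wells of about 8 µL received 7.5 nL stock; the first replicate is given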
RanGTP-Imp inh: inhibitors of RanGTP-importin-beta interaction, primary screen, biochemical, FRET, CFP-Ran, YFP-importin-beta, homogeneous. Ran GTPase (GTP-bound) - importin-beta complex. cell-free CFP-Ran/YFP-importin-beta FRET ratio. inhibition, % (concentration not given with the values). actives 1.1% (n = 300,000);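 active means most replicates above 15%; inconclusive means exactly half above 15%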;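 further: 0% = DMSO wells and 100% = Ran loaded with GDP instead of GTP; wells of about 40 µL received 100 nL stock; the first replicate is given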
ALR H2O2 inh: inhibitors of human ALR sulfhydryl oxidase, primary screen, biochemical, H2O2 detection, HRP-luminol luminescence, single point; FAD-linked sulfhydryl oxidase ALR (Homo sapiens), P55789; inhibition, % (concentration not given with the values); purified ALR, DTT oxidation; actives 3.8% (n = 290,000);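 active means mean and each replicate at 75% or more; inconclusive means only one of the two met; inactive means neither met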;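 further: stock transfer was 7.5 nL into about 7.5 µL; 0% = neutral wells and 100% = wells with inactivated enzyme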
Target sequence (P55789 whole entry, looked up): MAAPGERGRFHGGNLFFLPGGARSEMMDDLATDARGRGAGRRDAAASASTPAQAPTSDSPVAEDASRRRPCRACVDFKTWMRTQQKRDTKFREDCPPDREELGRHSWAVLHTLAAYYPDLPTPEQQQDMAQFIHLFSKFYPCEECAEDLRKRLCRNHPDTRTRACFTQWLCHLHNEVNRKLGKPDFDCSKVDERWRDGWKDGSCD
Beta apoptosis: inhibitors of cytokine-induced beta cell apoptosis, primary screen, luminescence. actives 0.8% (n = 300,000). INS-1E cytokine-induced death, ATP luminescence, 48 h; percent of positive-control rescue, neutral wells zero. protection from apoptosis, % (test concentration not listed). AID 435005, 2010;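 active means all replicates at 75% or more, or half of them and the mean; inconclusive means half reach 75% but not the mean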;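 further: 0% = cytokine-treated negative control wells and 100% = positive control rescue; higher means more ATP so stronger rescue from cytokine killing; wells of about 40 µL received 100 nL stock; the first replicate is given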
Ecoli rRNA inh OD600: further read-out of Ecoli rRNA inh, marked with its call; OD600 change, %; measured here: OD600 growth;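 optical density of the mix in the first replicate; 0 = DMSO median and -100 = no signal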
Ecoli rRNA inh RFP: also measured in Ecoli rRNA inh; calls as there; RFP signal change, %; measured here: RFP humanized mutant strains;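 first replicate; 0 = DMSO median and -100 = no signal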
Starred values were filed as active, the others as inactive; i = inactive; u = inconclusive; x = no result given; + = active, no number. These rows are one share of the data; the hit share may differ from the screen's.

SMILES	T cruzi repl	Ecoli rRNA inh	Ecoli rRNA inh OD600	Ecoli rRNA inh RFP	AF4-AF9 inh	FGF22 binding	Calb FLC	RanGTP-Imp inh	ALR H2O2 inh	Beta apoptosis
CC(C)(O)C#Cc1ccc(C(=O)N2CCC(C(N)=O)(N3CCCCC3)CC2)cc1	7.0	x	x	x	x	x	4.4	1.2	-2.3	-0.5
CC1CCN(C(=O)c2ccc(-n3cnnn3)cc2)CC1	-9.7	x	x	x	x	x	1.4	-2.9	-5.1	-2.2
CC(=O)Nc1ccc(SCC(=O)NC(=O)c2ccc(S(=O)(=O)N(C)C)cc2)cc1	x	1.9	0.1	-4.1	-6.8	i	x	x	98.6*	6.0
CSc1ccccc1NC(=O)CN(C)Cc1c(O)ccc2ccccc12	-5.9	-4.9	4.9	-0.8	-2.6	x	0.1	0.0	4.2	-8.5
Cc1ccc(OCCCCc2c(C)n[nH]c2C)cc1	8.9	-53.3	-75.2	-15.6	7.6	i	-5.8	0.2	-4.0	3.4
CC1(C)Cc2c(cnn2-c2cccc(F)c2)C(NC(=O)CSc2ccncc2)C1 (stereo not given)	11.7	-3.4	-8.5	-0.9	-1.3	i	6.0	-2.6	1.2	3.6
CCC(C)(C)n1nnnc1C(c1ccc(F)cc1)N1CCC(C(N)=O)CC1 (stereo not given)	-2.5	13.3	6.2	-7.4	1.3	i	11.4	-3.1	-0.9	-9.0
CN(C(=O)c1ccccc1Cl)C1CCCCC1	-0.7	x	x	x	x	x	-11.8	x	-2.7	-2.3
Cn1c(NC(=O)c2ccccc2)c(-c2cccs2)c(=O)c2ccccc21	4.4	x	x	x	x	x	-6.9	0.9	-9.5	-6.0
CCCOc1ccc(/C(O)=C2/C(=O)C(=O)N(c3ccccn3)C2c2ccc(OC)cc2)cc1C (stereo not given)	-4.6	-2.3	10.4	0.0	0.9	i	18.9	2.5	10.3	-2.9
CCn1cc([N+](=O)[O-])c(C(=O)N2N=C3/C(=C/c4cccs4)CCCC3C2c2cccs2)n1 (stereo not given)	38.1	x	x	x	x	x	30.4	-4.7	-0.7	-0.7
O=C(O)c1cccc(N2C(=O)/C(=C/c3ccc([N+](=O)[O-])cc3)C=C2c2ccccc2)c1	1.4	2.9	-6.6	-4.7	3.8	i	25.1	5.7	2.5	-5.6
CC(NC(=O)C1CCC(CNc2c(N3CCOCC3)c(=O)c2=O)CC1)c1ccccc1 (stereo not given)	-8.8	12.5	18.4	2.1	-28.6	i	-1.3	-2.6	x	1.1
Cc1ccc2c(c1)N(C(=O)CCC(=O)NCc1ccccn1)CC(C)O2 (stereo not given)	-6.4	0.2	1.0	0.8	-5.4	i	1.8	-1.1	-0.4	-6.0
Fc1ccccc1N1CCN(C(c2ccccn2)c2nnnn2C2CCCCC2)CC1 (stereo not given)	-10.4	x	x	x	x	x	-13.4	u	-5.9	-10.5
COC(=O)C(C)N(C(=O)c1cccc(Cl)c1)c1c(C)cccc1C (stereo not given)	1.6	x	x	x	x	x	14.2	1.3	-0.4	0.0
CC(C)(C)c1ccc(-c2n[nH]c(=S)n2C2CCCC2)cc1	34.9	x	x	x	x	x	-3.5	-1.0	46.9	20.9
CCOC(=O)C1CCN(Cc2cc(=O)oc3cc(C)c(Cl)cc23)CC1	2.7	6.8	-5.2	-2.4	-0.9	i	6.6	0.8	-2.4	-10.4
C/C(=C\C(=O)c1ccc(Br)cc1)NCc1ccccc1	-8.8	x	x	x	x	x	19.7	7.0	-0.4	-2.5
C#CC1(NC(=O)N(C)C)CCCCC1	-4.7	6.8	7.8	-0.5	-0.2	i	-19.9	-1.1	1.1	-0.5
Cc1ccc(CNC(=O)Nc2cccs2)cc1	-10.8	x	x	x	x	x	-6.1	-0.8	40.1	-3.4
CSc1ccc(C2CC(=O)Nc3nc(SC)[nH]c(=O)c32)cc1 (stereo not given)	-1.0	12.6	13.7	-0.5	-0.1	i	-2.7	4.4	-5.5	3.3
Cc1ccc(S(=O)(=O)NCC2NCCc3ccccc32)cc1 (stereo not given)	18.9	-1.0	-6.2	1.9	0.1	i	7.2	4.2	2.6	0.0
Cc1ccc(NC(=O)C(=O)NCc2ccc(/C=N/NC(=O)c3c(C)nc4cc(C)ccn34)o2)cc1	-11.3	4.7	11.3	4.7	1.3	+	8.7	-0.7	2.1	-2.7
Cn1cccc1C(=O)NC(=O)CSc1nc2ccccc2s1	-3.2	x	x	x	x	x	-10.4	0.2	x	-3.5
COc1cc(C2OC(c3cc(OC)c(OC)c(OC)c3)C(C)C2C)cc(OC)c1OC (stereo not given)	8.0	x	x	x	-2.6	i	6.2	-2.1	-0.5	-2.6
C=CCn1c(O)c(N=NC(=O)CNC(=O)c2ccco2)c2ccccc21	-7.3	4.7	-0.8	1.4	-1.3	i	-6.1	u	-10.1	3.9
Cc1ccc(Sc2nnc(Cc3ccccc3)c3ccccc23)cc1	61.5*	-6.6	-39.3	-1.6	x	x	-6.7	-0.9	-11.5	-5.8
CC(=O)Oc1ccc(N2C(=O)[C@@H]3[C@H](C2=O)[C@H]2c4ccccc4C=NN2[C@@H]3C(C)=O)cc1	3.6	-1.0	-7.5	3.1	2.1	i	-9.0	0.6	1.8	-2.9
Cc1noc(C)c1C(=O)Nc1sccc1C(N)=O	x	10.5	18.9	40.0	-0.2	i	x	x	-0.1	-1.8
O=C(NCCCN1CCOCC1)C(C(=O)c1ccccc1)n1ccccc1=O (stereo not given)	-15.3	x	x	x	x	x	-3.4	-2.2	1.6	-1.3
CCCCN1C(=O)Cc2c1nc(N)c1c(N)nc(N(CCC)CCC)c(C#N)c21	74.1*	x	x	x	x	x	9.1	3.0	-25.2	39.5
CCCCn1c(CCl)nc2cc(S(=O)(=O)N3CCOCC3)ccc21	x	-2.7	14.5	2.9	0.5	i	x	x	10.2	-1.8
O=C(NCCCn1ccnc1)c1noc2c1CCCC2	-14.5	x	x	x	x	x	3.0	4.1	-4.2	-2.0
O=C(COC(=O)Cc1cn2ccsc2n1)NCc1ccc2c(c1)OCO2	-14.4	x	x	x	x	x	1.9	2.7	x	1.3
Cc1ccc(/C=N/NC(=O)c2cccnc2)o1	-12.8	21.0	19.4	2.5	-1.3	x	8.2	-1.1	-3.3	-1.7
COCCN1CCn2c(nc3cc([N+](=O)[O-])ccc32)C1	13.2	-5.1	2.0	-8.1	6.7	i	2.6	2.4	-4.5	-9.6
CCN(CC)S(=O)(=O)c1cc(NC(=O)CNc2c(C)n(C)n(-c3ccccc3)c2=O)ccc1C	-4.5	0.3	-0.8	2.3	-0.5	i	-3.0	-4.7	7.0	x
CN1CCN(c2ccccc2NC(=O)Cc2cn(C)c3ccccc23)CC1	12.2	-2.4	1.1	2.0	0.5	i	-5.3	u	-12.4	x
CC1(C)Cc2c(sc3[nH]c(=O)n(CC(=O)NCC4CCCO4)c(=O)c23)CO1 (stereo not given)	-14.0	24.6	26.6	0.4	-1.7	i	-0.6	-2.8	0.6	-1.9
CCOC(=O)c1cnc2[nH]c3ccccc3n2c1=O	-5.2	3.6	2.4	1.2	-2.4	i	43.4	2.4	-1.7	2.2
Cn1cnnc1Sc1cc(N2CCN(S(=O)(=O)c3ccc(Cl)c(Cl)c3)CC2)ccc1[N+](=O)[O-]	19.7	x	x	x	x	x	4.6	0.5	-2.7	7.9
Cc1cc2c(=O)n(C)c(SCC(=O)c3cc4ccccc4o3)nc2s1	8.0	x	x	x	x	x	3.0	1.7	-4.6	-8.1
CSc1ccccc1NC(=O)CN1CC(C)OC(C)C1 (stereo not given)	-5.1	0.9	-1.6	-6.5	-1.5	i	-1.1	-1.1	-5.4	-1.2
CC(C)OC(=O)c1nnc(-c2ccccc2)nc1OC(C)C	6.8	x	x	x	x	x	0.0	4.2	-8.8	2.1

Profiles, quoted from the list.
CCOC(=O)c1cnc2[nH]c3ccccc3n2c1=O is listed with T cruzi repl = -5.2; Ecoli rRNA inh = 3.6; Ecoli rRNA inh OD600 = 2.4; Ecoli rRNA inh RFP = 1.2; AF4-AF9 inh = -2.4; FGF22 binding = i; Calb FLC = 43.4; RanGTP-Imp inh = 2.4; ALR H2O2 inh = -1.7; Beta apoptosis = 2.2
CC(C)OC(=O)c1nnc(-c2ccccc2)nc1OC(C)C is listed with T cruzi repl = 6.8; Ecoli rRNA inh = x; Ecoli rRNA inh OD600 = x; Ecoli rRNA inh RFP = x; AF4-AF9 inh = x; FGF22 binding = x; Calb FLC = 0.0; RanGTP-Imp inh = 4.2; ALR H2O2 inh = -8.8; Beta apoptosis = 2.1
CCN(CC)S(=O)(=O)c1cc(NC(=O)CNc2c(C)n(C)n(-c3ccccc3)c2=O)ccc1C is listed with T cruzi repl = -4.5; Ecoli rRNA inh = 0.3; Ecoli rRNA inh OD600 = -0.8; Ecoli rRNA inh RFP = 2.3; AF4-AF9 inh = -0.5; FGF22 binding = i; Calb FLC = -3.0; RanGTP-Imp inh = -4.7; ALR H2O2 inh = 7.0; Beta apoptosis = x

The listing picks up; the two compounds before the break are reprinted first.
SMILES	T cruzi repl	Ecoli rRNA inh	Ecoli rRNA inh OD600	Ecoli rRNA inh RFP	AF4-AF9 inh	FGF22 binding	Calb FLC	RanGTP-Imp inh	ALR H2O2 inh	Beta apoptosis
CSc1ccccc1NC(=O)CN1CC(C)OC(C)C1 (stereo not given)	-5.1	0.9	-1.6	-6.5	-1.5	i	-1.1	-1.1	-5.4	-1.2
CC(C)OC(=O)c1nnc(-c2ccccc2)nc1OC(C)C	6.8	x	x	x	x	x	0.0	4.2	-8.8	2.1
CC(C)N(C(=O)CN1CCN(S(=O)(=O)c2ccc(Br)s2)CC1)C(C)C	x	-12.8	-9.6	3.2	-2.1	i	x	x	-3.3	1.5
CC1CN(C(=O)c2ccccc2)c2ccccc2NC1=O (stereo not given)	-3.7	x	x	x	x	x	-3.9	-0.6	-15.3	-2.6
O=C(O)/C=C/C(=O)OC1CC2CCC1C2 (stereo not given)	-1.4	11.2	4.8	-0.2	-9.7	x	-3.2	-2.7	-5.2	0.0
Cc1cccc(NC2=C(Cl)C(=O)OC2NC(=O)c2ccccc2)c1 (stereo not given)	-8.5	x	x	x	x	x	0.5	-2.6	1.2	-6.8
COc1ccccc1N(CC(=O)NCCc1ccccc1)S(C)(=O)=O	4.2	-0.2	2.1	-0.1	x	x	2.2	3.9	x	3.4
O=C(NCCCN1CCOCC1)C1CC(=O)N(CCc2ccccc2)C1 (stereo not given)	2.9	x	x	x	x	x	-3.5	4.2	-1.2	0.2
Cc1ccc(NC(=O)C2CCCN(S(=O)(=O)c3cnc[nH]3)C2)cc1F (stereo not given)	x	4.2	11.6	8.1	5.1	i	x	x	10.4	x
